High-throughput results: PubChem, National Center for Advancing Translational Sciences (NCATS)
TRPV1 potentiator: potentiators of human vanilloid receptor 1 (TRPV1). Q8NER1. TRPV1-expressing cells, Fluo-8 calcium influx, capsaicin EC20 potentiation; host cell line not named in the record; control for the full effect not named in the record. potentiation, % at 8.33 µM. 320,000 compounds, 0.02% hits. AID 540277; active means potentiation above 80%; inconclusive means 30% to 80%; inactive means below 30%; also: 0% is about no effect
Target sequence (Q8NER1 whole entry, looked up): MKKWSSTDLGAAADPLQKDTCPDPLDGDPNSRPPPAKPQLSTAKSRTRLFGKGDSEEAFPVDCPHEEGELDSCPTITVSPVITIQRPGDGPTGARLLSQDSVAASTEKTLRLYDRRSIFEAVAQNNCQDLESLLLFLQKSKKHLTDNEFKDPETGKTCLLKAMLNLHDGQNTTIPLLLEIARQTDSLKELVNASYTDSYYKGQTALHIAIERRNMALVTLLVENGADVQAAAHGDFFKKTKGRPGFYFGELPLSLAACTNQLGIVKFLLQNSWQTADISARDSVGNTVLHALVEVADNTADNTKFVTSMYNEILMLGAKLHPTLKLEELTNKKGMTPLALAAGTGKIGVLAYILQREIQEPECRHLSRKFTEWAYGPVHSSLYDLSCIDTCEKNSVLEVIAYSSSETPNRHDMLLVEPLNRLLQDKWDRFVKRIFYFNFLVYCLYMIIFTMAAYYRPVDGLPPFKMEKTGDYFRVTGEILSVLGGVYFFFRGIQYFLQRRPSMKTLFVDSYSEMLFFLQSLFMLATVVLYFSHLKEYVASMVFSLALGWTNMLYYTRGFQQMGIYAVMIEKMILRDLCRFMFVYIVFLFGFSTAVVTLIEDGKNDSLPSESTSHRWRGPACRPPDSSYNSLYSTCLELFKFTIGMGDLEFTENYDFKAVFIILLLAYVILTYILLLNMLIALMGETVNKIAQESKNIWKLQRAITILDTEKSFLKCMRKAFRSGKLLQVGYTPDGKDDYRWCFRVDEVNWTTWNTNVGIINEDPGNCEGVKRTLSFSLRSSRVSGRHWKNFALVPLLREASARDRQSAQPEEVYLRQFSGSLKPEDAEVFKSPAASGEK
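Fluo-8 calcium influx in TRPV1-expressing cells, kinetic read (ex 480/em 520 nm). Compound added and read 3 min for agonist activity, followed by capsaicin at EC20 final and 2 min further read for enhancement.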
ClpP mod: qHTS Assay for Activators of ClpP; ATP-dependent Clp protease proteolytic subunit (Bacillus subtilis (strain 168)), P80244; purified B. subtilis ClpP, FRET peptide cleavage, 20 min; Potency, µM (titrated, usually from 57.5 µM), for inactives: at the top dose activity change, negative = active; 340,000 compounds, 1.9% hits; AID 651965, 2013; active = well fitted falling curve with a large enough effect; inconclusive = small, poorly fitted or top-dose-only effect; inactive = no such curve, though single readings can be large or run the other way; also: potency is read from the fitted curve at half-maximal effect; the source files actives as falling curves though it sought activators and does not explain the sign; nearly all actives have a fitted effect of over 65% in size; many hits overshoot -100%
Target sequence (P80244 whole entry, looked up): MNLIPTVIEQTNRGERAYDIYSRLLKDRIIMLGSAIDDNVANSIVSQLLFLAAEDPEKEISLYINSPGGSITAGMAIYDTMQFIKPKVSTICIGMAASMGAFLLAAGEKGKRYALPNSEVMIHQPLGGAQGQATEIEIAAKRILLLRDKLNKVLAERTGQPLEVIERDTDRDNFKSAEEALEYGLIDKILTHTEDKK
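Buffer: 100 mM Tris/HCl pH8, 100 mM KCl, 0.05% low protease BSA, 2.5% glycerol, 0.01% Tween-20. ClpP 10 microg/mL final; 20 min RT; delta FRET normalized to ADEP and DMSO controls.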
Sfp PPTase inh: Sfp phosphopantetheinyl transferase inhibition | Potency, µM, inactives show max response, negative = inhibition, usual class: inhibitors | AID 1490 | Q9F4F7 | Biochemical Sfp PPTase activity, qHTS | 310,000 compounds, 3.5% hits; active = well fitted inhibition curve with a large enough effect; inconclusive = small, poorly fitted or top-dose-only effect, or another doubt; inactive = no such curve, though single readings can be large or run the other way;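 also: the enzyme is Sfp with the accession as filed and its product quenches rhodamine fluorescence; potency is read from the fitted curve at half-maximal effect; 0% = enzyme reaction without inhibitor and -100% = no enzyme wells; top concentration of the series not given in the record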
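Compounds were incubated with enzyme (final 15 nM) for 15 min at room temperature before substrate addition started the reaction. Fluorescence at 525 nm excitation, 598 nm emission was recorded immediately and after 30 minutes.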
gsp antag: antagonizes gsp, the McCune-Albright syndrome mutation. AID 624288. gsp-mutant cells, cAMP HTRF, 30 min; control for the full effect not named in the record. Potency, µM (series often up to 76.9 µM), for the others: at the top dose activity change, negative = inhibition, actives largely listed as inhibitors. 340,000 compounds, 0.4% hits; active = falling curve of any shape with a large fitted effect; inconclusive = falling curve, mostly with a smaller effect; inactive = flat or rising curve; cell line not stated here;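 also: intracellular cAMP measured with PDE inhibitor Ro 20-1724 present during compound exposure; potency is read from the fitted curve at half-maximal effect; % is scaled to controls: 0 for no effect and ±100 for the full control effect; nearly all actives have a fitted effect of over 65% in size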
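HTRF cAMP measurement after 30 min RT detection following 30 min, 37C compound treatment alongside […] (added as 300 uM solution) in G418-selected cells seeded at 2000/well and grown 16–24 h.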
gsp agonist: agonists of gsp mutant (McCune-Albright syndrome). Potency, µM (top dose mostly 76.9 µM), without a hit: top-dose activation (cAMP increase), actives largely listed as activators. gsp mutant cells, cAMP HTRF, 30 min; control for the full effect not named in the record. 340,000 compounds, 0.13% hits; active = well fitted activation curve with a large enough effect; inconclusive = small, poorly fitted or top-dose-only effect, or another doubt; inactive = no such curve, though single readings can be large or run the other way; cell line not stated here;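 also: phosphodiesterase inhibitor Ro 20-1724 added with compounds to block cAMP breakdown; potency is read from the fitted curve at half-maximal effect; nearly all actives have a fitted effect of over 60% in size; about a fifth of the inactives were tested at one dose only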
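Cells in DMEM/10% FBS with G418 were pretreated with compounds in DMSO plus […] (300 uM stock) for 30 min at 37C. cAMP was measured by HTRF (cAMP-d2 plus anti-cAMP antibody-K) after 30 min at room temperature.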
Menin-MLL FL inh: menin-MLL binding inhibition, fluorescein peptide. Fluorescence polarization, fluorescein-MLL peptide displacement from menin. FP activity change, % at 61.4 µM. 290,000 tested, under 10 active. AID 1766; inconclusive = falling polarisation curve, or a change in total fluorescence; inactive = total fluorescence flat and polarisation flat or rising; no compound was filed as active; the % refers to the polarisation; negative = inhibition;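 also: % of control where 0% means no effect; inhibitors lower the polarisation; unlabelled MLL peptide was the positive control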
D2 potentiator: positive allosteric modulators of human D2 dopamine receptor | P14416 | potentiation, % (test concentration not listed) | DiscoveRx D2 beta-arrestin cells, luminescence, 90 min; 100% = 57 uM dopamine signal | AID 624464 | 360,000 compounds, 0.23% hits; active = potentiation of 50% or more; inconclusive = 30% to 50%; inactive = 30% or less;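 also: compound concentration not given in the record; tested on top of an EC20 dose of dopamine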
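PathHunter beta-arrestin assay in DiscoveRx D2 cells. Compounds were added with an EC20 of dopamine (50 nM final) for 90 min at 37 deg C. Luminescence was read 1 h after detection reagent, with 57 uM dopamine as the EC100 control.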
* = called active by the depositor; ? = inconclusive; · = not tested or not shown; & = joins results of further samples; [ ] = remark or other dose.

The first 2 records, to show the layout:
SMILES | TRPV1 potentiator | ClpP mod | Sfp PPTase inh | gsp antag | gsp agonist | Menin-MLL FL inh | D2 potentiator
Cc1cc(F)ccc1NC(=O)CCc1ccc(S(=O)(=O)N2CCOCC2)cc1 | -6 | -1.6% | · | 9% | -23% | · | -1
C/C(=N/NC(=O)c1ccco1)c1ccc(NC(=O)c2ccc(Br)o2)cc1 | -20 | -0.6% | 7% | 8% | -7%[15.4 µM] | · | -28

Results, from the first entry:
SMILES | TRPV1 potentiator | ClpP mod | Sfp PPTase inh | gsp antag | gsp agonist | Menin-MLL FL inh | D2 potentiator
Cc1cc(F)ccc1NC(=O)CCc1ccc(S(=O)(=O)N2CCOCC2)cc1 | -6 | -1.6% | · | 9% | -23% | · | -1
C/C(=N/NC(=O)c1ccco1)c1ccc(NC(=O)c2ccc(Br)o2)cc1 | -20 | -0.6% | 7% | 8% | -7%[15.4 µM] | · | -28
N#Cc1c(-c2ccccc2F)cc(C2CC2)nc1SCC(=O)c1cccs1 | 8 | 2.0% | 3% | ? | -22% | 6.4 | -17
Cc1cccc(NC(=S)N2CCn3cccc3C2c2cccnc2)c1 (stereo not given) | 6 | -3.8% | 1% | -8% | -5% | 1.9 | -22
CCOc1ncccc1C(=O)Nc1ccc(Cl)cc1 | -9 | -0.6% | 1% | -1% | 0% | 0.0 | 0
O=c1c2[nH]c3ccc(Br)cc3c2ncn1CCCn1ccnc1 | 3 | -4.5% | -8% | 9% | -8% | 4.4 | -11
O=C(O)CSCC(=O)N1CCN(c2cc(C(F)(F)F)nc3ccccc23)CC1 | -5 | -1.3% | 8% | 6% | 23% | 1.6 | -4
CCOc1ccccc1Nc1nnc(C)c(=O)[nH]1 | 7 | -2.3% | 21% | 3% | 1% | 4.6 | -7
CN(C(=O)C1CCC(CNS(=O)(=O)c2cccc3cccnc23)CC1)C1CCCCC1 (stereo not given) | 1 | · | 0% | -3% | 11% | -2.5 | 2
CCCc1ncc(CN2CCCCC2C(=O)Nc2ccc(Oc3ccccc3)nc2)cn1 (stereo not given) | · | 0.2% | · | -11% | -29% | · | -6
COc1cc(C(=O)N2CCC(n3cnc4cc(F)ccc43)CC2)cc(OC)c1OC | 2 | -0.2% | 10% | 1% | 0% | 0.4 | -17
CSCCC1NC2(C(=O)Nc3ccc(Cl)cc32)[C@@H]2C(=O)N(C3CCCC3)C(=O)[C@H]12 (stereo not given in full) | -9 | -1.9% | 17% | -6% | 19% | 7.5 | 1
Cc1cccc(C(=O)N2CCCC(c3nc(-c4ccc(F)cc4)no3)C2)c1 (stereo not given) | 5 | -1.6% | 6% | ? | 10%[15.4 µM] | -1.0 | -35
Oc1cc2c(cc1C(c1ccc(Br)cc1)N1CCCC1)OCO2 (stereo not given) | 7 | · | 18µM* | 8% | 9%[15.4 µM] | -0.1 | 3
CC(C)(C)C(=O)OCc1nc(-c2ccc(F)cc2)cs1 | -19 | 0.6% | 0% | 9% | -10%[15.4 µM] | 0.9 | -3
O=C(c1ccc(CS(=O)c2cccc(Cl)c2)o1)N1CCOCC1 (stereo not given) | -11 | 1.0% | 16% | 15% | 4% | · | -3
O=C(CCC(=O)c1ccc(F)cc1)Nc1cccnc1 | 1 | 0.9% | 16% | 0% | -20% | -0.1 | -8
CCOC(=O)C1(Cc2ccc(Cl)cc2)CCN(C(=O)CCc2cnccn2)CC1 | -9 | · | -1% | -11% | 6%[15.4 µM] | 4.8 | -5
O=C(Nc1ccc(CN2CCS(=O)(=O)CC2)cc1)c1ccc(C(F)(F)F)cc1 | -23 | 18% | 17% | -14% | 4%[15.4 µM] | 1.6 | -8
CSc1nsc(NC(=O)Cc2ccccc2)n1 | -9 | 0.1% | 0% | -14% | 9% | -0.5 | -3
CCN1C(=O)CSc2ccc(C(=O)NC3CCCCC3)cc21 | 0 | 0.4% | 15% | -18% | 9% | 1.3 | -9
Cc1cc(C)n(CCC(=O)N2CCN(S(=O)(=O)c3ccc(C)c(C)c3)CC2)n1 | -29 | -1.6% | 15% | -23% | 13%[15.4 µM] | -2.7 | 5
CC(C)n1c(CNC(=O)c2ccccc2F)nnc1SCC(=O)NC1CCCCC1 | · | · | · | 3% | 15%[15.4 µM] | · | -6
COc1cccc(/C=N/NC(=O)C(=O)N/N=C/c2cccc(OC)c2O)c1O | 1 | · | 13% | 1% | ? | 6.7 | -2
CC(Sc1nnc(-c2ccco2)o1)C(=O)NCCC1=CCCCC1 (stereo not given) | -10 | 0.2% | 8% | -9% | 0%[15.4 µM] | -3.4 | -19

Profiles from above. Values in the order: TRPV1 potentiator | ClpP mod | Sfp PPTase inh | gsp antag | gsp agonist | Menin-MLL FL inh | D2 potentiator
Results for `CC(C)(C)C(=O)OCc1nc(-c2ccc(F)cc2)cs1` : -19 | 0.6% | 0% | 9% | -10%[15.4 µM] | 0.9 | -3
Results for `Cc1cccc(C(=O)N2CCCC(c3nc(-c4ccc(F)cc4)no3)C2)c1` (stereo not given) : 5 | -1.6% | 6% | ? | 10%[15.4 µM] | -1.0 | -35
Results for `N#Cc1c(-c2ccccc2F)cc(C2CC2)nc1SCC(=O)c1cccs1` : 8 | 2.0% | 3% | ? | -22% | 6.4 | -17
Results for `O=C(Nc1ccc(CN2CCS(=O)(=O)CC2)cc1)c1ccc(C(F)(F)F)cc1` : -23 | 18% | 17% | -14% | 4%[15.4 µM] | 1.6 | -8
Results for `CCCc1ncc(CN2CCCCC2C(=O)Nc2ccc(Oc3ccccc3)nc2)cn1` (stereo not given) : · | 0.2% | · | -11% | -29% | · | -6

The list continues:
SMILES | TRPV1 potentiator | ClpP mod | Sfp PPTase inh | gsp antag | gsp agonist | Menin-MLL FL inh | D2 potentiator
c1coc(CNc2ncnc3ccccc23)c1 | 5 | -0.8%&-1.0% | 9% | ? | ? | 2.0 | -8
CC(c1nccs1)N(C)c1nc2nonc2nc1NC1CC1 (stereo not given) | 6 | 0.0% | -1% | -1% | ? | -29 | -2
O=C(NCCNC(=O)c1ccccc1F)c1ccco1 | -1 | · | 8% | 5% | 0%[15.4 µM] | 0.5 | -3
CC(C(=O)Nc1ccc(S(=O)(=O)N2CCCC2)cc1)N1CCCC(C(N)=O)C1 (stereo not given) | -7 | -0.9% | · | 9% | 20% | · | -18
Cc1csc(C(=O)NN)c1N(C)C | -23 | 2.4% | -1% | -1% | ? | 0.9 | -7
CCOc1ccc2nc(NC(=O)c3ccc(S(=O)(=O)N4CCOCC4)cc3)sc2c1 | 2 | 122% | 10% | 1% | -1% | 3.2 | 1
CN(c1ccccc1)S(=O)(=O)c1cccc(NC(=O)Cc2c(F)cccc2Cl)c1 | 3 | 0.8% | 2% | ? | ? | 6.1 | -4
COc1ccc(COc2cc(-c3cccc(OC)c3)nc3ccc(NC(=O)c4cccnc4)cc23)cc1 | 2 | ? | ? | ? | · | -2.8&-0.2 | 13
C[C@@H](NC(=O)c1cc2c([nH]c3ccccc32)c(-c2ccccc2)n1)C(=O)O | 7 | 4.5% | -4% | -22% | 6% | -1.2 | -3
c1ccn2cc(C34CC5CC(CC(C5)C3)C4)nc2c1 | -12 | -0.6% | 12% | 11% | 5%[15.4 µM] | 0.5 | -13
Cc1ccc(C(=O)NCc2nnc(SCC(=O)Nc3ccccc3)n2C)cc1 | 1 | -1.6% | 23% | -5% | 13% | 3.5 | -23
Clc1ccc(-n2nnnc2SCc2cn3ccccc3n2)cc1 | -4 | -0.6% | -8% | 6% | 3% | 0.1 | 0
Cc1ccc2[nH]c(=O)c(CN(Cc3ccc4c(c3)OCO4)Cc3nnnn3Cc3ccco3)cc2c1 | -2 | -9.1% | -9% | 0% | 6% | 1.4 | -23
c1ccc(COc2ccc(Oc3nc(N4CCCCC4)nc(N4CCOCC4)n3)nn2)cc1 | -18 | 1.4% | -5% | 1% | -27% | 4.7 | -8
COc1ccc(NC(=O)Nc2nnc(-c3cccs3)s2)cc1 | 26 | -4.7% | -2% | 4% | -1% | 2.4 | 3
CCCn1c(N)c(C(=O)CSc2nc(C)cs2)c(=O)n(C)c1=O | 3 | -2.3% | 8% | -9% | 25% | 10 | 22
COc1cc(/C=C/c2nc3ccccc3c(=O)[nH]2)ccc1O | · | -16% | · | · | -36% | · | 14
CC(=O)OC1c2c(ccc3ccc(=O)oc23)OC(C)(C)C1OC(=O)CC(C)C (stereo not given) | -12 | ? | 13%&-1% | -4% | ? | -5.3&-3.7 | -19
COc1ccccc1CNS(=O)(=O)c1cccs1 | 6 | 0.7% | 9% | -1% | -18% | 0.9 | -1
COc1ccc(NS(=O)(=O)c2cc(N=Nc3c(O)[nH]c(=O)[nH]c3=O)ccc2Cl)cc1 | · | -2.5% | · | -10% | 9%[15.4 µM] | · | -29
O=C(NCc1ccccc1)C1CC(=O)N(c2ccc(OCC(=O)N3CCCC3)cc2)C1 (stereo not given) | -37 | 4.7% | 3% | -7% | -17% | -1.5 | -6
COc1ccc(C2NC(=O)CS2)cc1 (stereo not given) | 12 | 1.5% | -9% | -1%[15.4 µM] | -21% | 2.0 | -8
CCOC(=O)CCCCCC(=O)Nc1ccc2c(c1)C(=O)N([C@H](C)CO)C[C@@H](C)[C@H](CN(C)Cc1ccc3c(c1)OCO3)O2 | · | 0.3% | · | -1% | · | · | -4
CCN1CCN(CCCN(Cc2ccco2)C(=S)Nc2ccccc2Cl)CC1 | 128* | · | -12% | -15% | -12%[15.4 µM] | 3.4 | -11
CC1CC2(C)Oc3ccccc3CC2C(C)C1CNCCCN(C)C (stereo not given) | 9 | · | 11% | -12% | 9% | -12 | -6
O=C(CCCOc1ccccc1)Nc1cccc(S(=O)(=O)N2CCCCC2)c1 | -19 | 1.1% | · | -2% | 3% | · | -1
O=C(CS(=O)c1ccc(F)cc1)N1CCOCC1 (stereo not given) | 22 | 0.1% | 5% | 6% | 12% | -1.3 | -12
Cc1nn(-c2ccccc2)c(C)c1NC(=O)COC(=O)Cc1cccc(C(F)(F)F)c1 | -14 | -1.2% | · | 8% | -7%[15.4 µM] | · | -19

Compounds as they come; about 5.1% have a hit in one of these screens.
